Source: PubChem
HIV Env fusion: HIV envelope-mediated fusion inhibition. HeLa-JRFL Env/CEM21 cell fusion, luciferase. inhibition, % at 12.3 µM. 1.1% of 360,000 active;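 active = mean replicate inhibition score of at least 50 and every replicate individually at or above 50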;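 also: 0% = plate neutral controls and 100% = maraviroc near 300 nM; one replicate is shown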
UUG fidelity: modulators of start codon recognition fidelity in yeast. S. cerevisiae UUG-firefly luciferase reporter, luminescence/redox ratio. activity score, % at 18.7 µM. 0.13% of 350,000 active;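 active = replicate mean at a twofold rise or more, about +100% in these data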;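 also: firefly luciferase made from a UUG start codon reports start codon fidelity; reporter light over untreated wells divided by growth signal over untreated wells; some hits fall short of that in this replicate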
An asterisk follows results filed as active; [ ] = dose if it differs, or a comment.

SMILES	HIV Env fusion	UUG fidelity
CCC(=O)N1C[C@H](O)COC[C@@H]2O[C@@H](CC(=O)NCc3ccc(Oc4ccccc4)cc3)CC[C@H]21	0[16.7 µM]	8
C[C@@H]1CN([C@H](C)CO)S(=O)(=O)c2ccc(C#Cc3ccc(F)cc3)cc2O[C@H]1CN(C)S(C)(=O)=O	21[16.7 µM]	8
CCO[C@@H]1OC(C(=O)Nc2ccccc2)=C[C@H](c2cn(C(C)=O)c3ccccc23)[C@H]1CCCO	1[16.7 µM]	-2
C[C@@H]1CN([C@@H](C)CO)C(=O)c2cc(NC(=O)CCC(F)(F)F)ccc2O[C@@H](C)CCCCO[C@@H]1CN(C)Cc1ccncc1	-16[16.7 µM]	-3
C[C@@H]1CCCCO[C@@H](CN(C)Cc2ccc(Cl)c(Cl)c2)[C@H](C)CN([C@H](C)CO)C(=O)c2cc(NS(=O)(=O)c3ccc(F)cc3)ccc2O1	30[16.7 µM]	0
CNC(=O)C[C@@H]1CC[C@H]2[C@@H](COc3ccc(NC(=O)Nc4cccc(F)c4)cc3C(=O)N2C)O1	-25[16.7 µM]	1
CN1C(=O)c2cc(NC(=O)C3CCOCC3)ccc2OC[C@@H]2O[C@H](CC(=O)O)CC[C@@H]21	13[16.7 µM]	-9
COc1cccc(S(=O)(=O)N[C@H]2CC[C@H](CC(=O)NCc3ccc(F)cc3)O[C@H]2CO)c1	10[16.7 µM]	-15
CCCNC(=O)N(C)C[C@H]1Oc2ncc(C#CC3CCCCC3)cc2C(=O)N([C@H](C)CO)C[C@H]1C	-10[16.7 µM]	1
CC(C)CC#Cc1ccc2c(c1)O[C@H](CN(C)C(=O)Nc1ccccc1F)[C@H](C)CN([C@H](C)CO)S2(=O)=O	1[16.7 µM]	2
COc1ccccc1C#Cc1ccc2c(c1)O[C@@H](CN(C)Cc1ccncc1)[C@@H](C)CN([C@@H](C)CO)S2(=O)=O	46*[16.7 µM]	-2
C[C@H](O)C#Cc1ccc2c(c1)O[C@@H](CN(C)C(=O)CN(C)C)[C@H](C)CN([C@@H](C)CO)S2(=O)=O	2[16.7 µM]	1
O=C(NCC[C@@H]1CC[C@H](NS(=O)(=O)Cc2ccccc2)[C@H](CO)O1)C1CC1	20[16.7 µM]	2
C[C@@H]1CN([C@@H](C)CO)S(=O)(=O)c2ccc(C#Cc3ccc(F)cc3)cc2O[C@@H]1CN(C)C	2[16.7 µM]	1
CN(C)CC(=O)Nc1ccc2c(c1)[C@H]1C[C@@H](CC(=O)NCc3ccccc3)O[C@H](CO)[C@H]1O2	-10[16.7 µM]	-6
O=C(N[C@H]1C=C[C@H](CC(=O)N2CCc3ccccc3C2)O[C@@H]1CO)C1CCC1	-7[16.7 µM]	-3
Cc1ccc(S(=O)(=O)N(C)C[C@@H]2Oc3ccc(NS(=O)(=O)c4c(C)noc4C)cc3CC(=O)N([C@H](C)CO)C[C@H]2C)cc1	2[16.7 µM]	12
CCNC(=O)C[C@@H]1CC[C@H]2[C@H](COc3ccc(NC(=O)c4cccs4)cc3C(=O)N2C)O1	2[16.7 µM]	3
C[C@H](CO)N1C[C@H](C)[C@H](CN(C)Cc2cccc(F)c2)Oc2cc(-c3cccc(C#N)c3)ccc2S1(=O)=O	37[16.7 µM]	12
C[C@@H]1CN([C@H](C)CO)S(=O)(=O)c2ccc(-c3ccncc3)cc2O[C@H]1CN(C)C(=O)C1CC1	-2[16.7 µM]	-7
O=C(N[C@H]1CC[C@@H](CCn2cc(Cc3ccccc3)nn2)O[C@@H]1CO)c1cnccn1	4[16.7 µM]	-11
COCC#Cc1ccc2c(c1)O[C@@H](CN(C)CC1CCCCC1)[C@H](C)CN([C@@H](C)CO)S2(=O)=O	0[16.7 µM]	11
COc1ccc(NC(=O)Nc2ccc3c(c2)CC(=O)N([C@H](C)CO)C[C@@H](C)[C@@H](CN(C)S(=O)(=O)c2c(C)noc2C)O3)cc1	-12[16.7 µM]	5
CCCC#Cc1cnc2c(c1)C(=O)N([C@@H](C)CO)C[C@H](C)[C@H](CN(C)C(=O)Nc1ccc(OC)cc1)O2	-15[16.7 µM]	2

Single records (already shown).
COc1ccc(NC(=O)Nc2ccc3c(c2)CC(=O)N([C@H](C)CO)C[C@@H](C)[C@@H](CN(C)S(=O)(=O)c2c(C)noc2C)O3)cc1 is listed with HIV Env fusion: -12[16.7 µM]; UUG fidelity: 5
C[C@H](O)C#Cc1ccc2c(c1)O[C@@H](CN(C)C(=O)CN(C)C)[C@H](C)CN([C@@H](C)CO)S2(=O)=O is listed with HIV Env fusion: 2[16.7 µM]; UUG fidelity: 1

Rewritten field by field: part of the list above
SMILES: CCNC(=O)C[C@@H]1CC[C@H]2[C@H](COc3ccc(NC(=O)c4cccs4)cc3C(=O)N2C)O1
  HIV Env fusion = 2[16.7 µM]; UUG fidelity = 3

SMILES: C[C@H](CO)N1C[C@H](C)[C@H](CN(C)Cc2cccc(F)c2)Oc2cc(-c3cccc(C#N)c3)ccc2S1(=O)=O
  HIV Env fusion = 37[16.7 µM]; UUG fidelity = 12

SMILES: C[C@@H]1CN([C@H](C)CO)S(=O)(=O)c2ccc(-c3ccncc3)cc2O[C@H]1CN(C)C(=O)C1CC1
  HIV Env fusion = -2[16.7 µM]; UUG fidelity = -7

SMILES: O=C(N[C@H]1CC[C@@H](CCn2cc(Cc3ccccc3)nn2)O[C@@H]1CO)c1cnccn1
  HIV Env fusion = 4[16.7 µM]; UUG fidelity = -11

Further results.
SMILES	HIV Env fusion	UUG fidelity
COC(=O)C[C@H]1CC[C@@H]2[C@H](COc3ccc(NC(=O)Nc4ccccc4C)cc3C(=O)N2C)O1	1[16.7 µM]	-1
COCC#Cc1ccc2c(c1)O[C@@H](CN(C)C(C)=O)[C@@H](C)CN([C@H](C)CO)S2(=O)=O	4[16.7 µM]	4
C[C@@H]1CN([C@@H](C)CO)C(=O)c2cc(NC(=O)c3ccncc3)ccc2O[C@@H](C)CCCCO[C@H]1CN(C)C(=O)Nc1ccc(F)cc1	-25[16.7 µM]	-3
C[C@@H]1CN([C@@H](C)CO)C(=O)Cc2cc(NC(=O)Nc3ccc(C(F)(F)F)cc3)ccc2O[C@@H]1CN(C)C(=O)Nc1ccc(F)cc1	4[16.7 µM]	-3
N#C[C@@H]1[C@@H](c2ccc(C#Cc3cccc(F)c3)cc2)[C@H](CO)N1C(=O)C1CC1	-14[16.7 µM]	-3
COc1ccc(CN(C)C[C@H]2OCCCC[C@@H](C)Oc3ccc(NC(=O)NC(C)C)cc3C(=O)N([C@@H](C)CO)C[C@@H]2C)cc1	-20[16.7 µM]	11
O=S(=O)(NCC[C@H]1CC[C@H](NS(=O)(=O)c2cccc(Cl)c2)[C@H](CO)O1)c1cccc(F)c1	-13[16.7 µM]	8
O=C(C[C@@H]1CC[C@@H](NC(=O)c2cccc(F)c2)[C@@H](CO)O1)Nc1nccs1	5[16.7 µM]	-11
COc1cccc(-c2ccc3c(c2)O[C@@H](CN(C)C(C)=O)[C@H](C)CN([C@H](C)CO)S3(=O)=O)c1	-7[16.7 µM]	10
O=C(Nc1ccc(F)cc1)N[C@@H]1CC[C@@H](CC(=O)N2CCOCC2)O[C@@H]1CO	4[16.7 µM]	-18
CN(C)C(=O)C[C@@H]1CC[C@H]2[C@@H](COC[C@@H](O)CN2Cc2nccs2)O1	-12[16.7 µM]	1
CC(C)NC(=O)N[C@@H]1CC[C@H](CCn2cc(-c3ccccc3)nn2)O[C@H]1CO	-27[16.7 µM]	-5
C[C@H](CO)N1C[C@H](C)[C@H](CN(C)Cc2cncnc2)Oc2cc(-c3cccnc3)ccc2S1(=O)=O	-23[16.7 µM]	-14
COc1cc2c(cc1OC)CN(C(=O)[C@H]1[C@@H]3C(=O)O[C@@H](c4ccccc4)[C@@H](c4ccccc4)N3[C@@H](c3ccc(OCCO)cc3)[C@]13C(=O)Nc1ccc(C#CC4(O)CCCCCC4)cc13)CC2	-9[16.7 µM]	-15
CC(C)NC(=O)N(C)C[C@H]1Oc2cc(C3=CCCCC3)ccc2S(=O)(=O)N([C@H](C)CO)C[C@H]1C	21[16.7 µM]	8
C[C@H]1CN([C@@H](C)CO)C(=O)c2cc(NC(=O)NC3CCCCC3)ccc2O[C@@H]1CN(C)C(=O)Nc1ccc(C(F)(F)F)cc1	7[16.7 µM]	-5
C[C@@H]1CN([C@H](C)CO)C(=O)Cc2cc(NC(=O)Nc3ccccc3)ccc2O[C@@H]1CN(C)Cc1ccc(C(F)(F)F)cc1	13[16.7 µM]	20
O=C(C[C@H]1C[C@@H]2c3cc(NC(=O)c4cccnc4)ccc3O[C@@H]2[C@H](CO)O1)NCc1ccccn1	1[16.7 µM]	-25
C[C@@H]1CN([C@@H](C)CO)C(=O)c2cc(C#C[C@@H](C)O)cnc2O[C@H]1CN(C)C(=O)c1ccc(F)cc1	-10[16.7 µM]	19
COc1ccc(S(=O)(=O)Nc2ccc3c(c2)CC(=O)N([C@@H](C)CO)C[C@@H](C)[C@H](CN(C)S(=O)(=O)c2cccs2)O3)cc1	-4[16.7 µM]	3
C/C=C/c1ccc2c(c1)O[C@H](CN(C)C(=O)Nc1ccc(C(F)(F)F)cc1)[C@H](C)CN([C@H](C)CO)S2(=O)=O	38[16.7 µM]	-24
C[C@H]1CN([C@@H](C)CO)C(=O)c2cc(-c3ccc(C(=O)N(C)C)cc3)cnc2O[C@@H]1CN(C)Cc1ccc(C(=O)O)cc1	-12[16.7 µM]	-7
C[C@H]1CCCCO[C@H](CN(C)S(=O)(=O)c2ccccc2)[C@@H](C)CN([C@@H](C)CO)C(=O)c2cc(NC(=O)Nc3ccc4c(c3)OCO4)ccc2O1	4[16.7 µM]	-11
COc1ccc(S(=O)(=O)N[C@@H]2CC[C@H](CCNC(=O)c3ccccc3F)O[C@H]2CO)cc1	1[16.7 µM]	-3
CCCC(=O)Nc1ccc2c(c1)C(=O)N(C)[C@H]1CC[C@H](CC(=O)Nc3cccc(C)c3)O[C@@H]1CO2	-21[16.7 µM]	8
CC(C)CC#Cc1ccc2c(c1)O[C@@H](CN(C)CC1CCOCC1)[C@@H](C)CN([C@H](C)CO)S2(=O)=O	6[16.7 µM]	4
C[C@H]1CN([C@@H](C)CO)C(=O)Cc2cc(NC(=O)Nc3cccc4ccccc34)ccc2O[C@@H]1CN(C)Cc1ccccc1	-1[16.7 µM]	14
CCCC#Cc1cnc2c(c1)C(=O)N([C@@H](C)CO)C[C@H](C)[C@H](CN(C)C(=O)C1CCOCC1)O2	5[16.7 µM]	-3
NCCCCCCNC(=O)[C@@H]1C[C@@H]2C(=O)NCC(=O)N2[C@@H]1c1ccc(O)cc1	-19[16.7 µM]	2
C[C@@H]1CN([C@H](C)CO)C(=O)c2cc(NC(=O)Nc3ccc(F)cc3)ccc2O[C@@H](C)CCCCO[C@@H]1CN(C)C(=O)Cc1ccccc1	-2[16.7 µM]	8
Cc1ccc(S(=O)(=O)N(C)C[C@@H]2OCCCC[C@H](C)Oc3ccc(NC(=O)Nc4ccc(C(F)(F)F)cc4)cc3C(=O)N([C@H](C)CO)C[C@H]2C)cc1	45[16.7 µM]	-11
COc1cccc(NC(=O)C[C@H]2CC[C@@H]3[C@H](COc4ccc(NC(=O)C5CCCCC5)cc4C(=O)N3C)O2)c1	-5[16.7 µM]	12
C[C@H]1CN([C@@H](C)CO)C(=O)Cc2cc(NC(=O)Nc3ccccc3)ccc2O[C@@H]1CN(C)Cc1ccncc1	10[16.7 µM]	4
COc1ccc(NC(=O)N[C@@H]2CC[C@@H](CC(=O)NCc3ccccn3)O[C@@H]2CO)cc1	3[16.7 µM]	-18
C[C@H]1CN([C@@H](C)CO)C(=O)Cc2cc(N(C)C)ccc2O[C@@H]1CN(C)Cc1ccc2c(c1)OCO2	2[16.7 µM]	-7
CCNC(=O)C[C@@H]1CC[C@H]2[C@@H](COc3ccc(NC(=O)Nc4cccc(Cl)c4)cc3C(=O)N2C)O1	19[16.7 µM]	-4
COc1ccc(CN(C)C[C@@H]2Oc3c(NC(=O)Nc4ccc5c(c4)OCO5)cccc3C(=O)N([C@H](C)CO)C[C@@H]2C)cc1	-31[16.7 µM]	21
O=C(C[C@H]1CC[C@@H](NC(=O)Nc2ccc(C(F)(F)F)cc2)[C@@H](CO)O1)NCCN1CCCC1	13[16.7 µM]	-10
CCNC(=O)C[C@H]1CC[C@H]2[C@@H](COc3ccc(NC(=O)NC(C)C)cc3C(=O)N2C)O1	-2[16.7 µM]	-7
N#C[C@@H]1[C@H](c2ccc(C#CC3CCCCC3)cc2)[C@H](CO)N1C(=O)Cc1ccccn1	11[16.7 µM]	-11
C[C@@H]1CN([C@@H](C)CO)C(=O)c2cc(NC(=O)c3ccccc3)ccc2O[C@@H](C)CCCCO[C@@H]1CN(C)C(=O)Cc1ccccc1	-8[16.7 µM]	5
O=C(C[C@H]1C=C[C@@H](NC(=O)c2ccc3c(c2)OCO3)[C@H](CO)O1)NCc1ccc(F)cc1	-15[16.7 µM]	-15
COc1ccc(NC(=O)N(C)C[C@@H]2Oc3ccc(NC(=O)Nc4ccc5c(c4)OCO5)cc3CC(=O)N([C@@H](C)CO)C[C@H]2C)cc1	18[16.7 µM]	4
Cc1ccc(S(=O)(=O)Nc2cccc3c2O[C@@H](CN(C)S(=O)(=O)c2ccc(C)cc2)[C@@H](C)CN([C@H](C)CO)C3=O)cc1	-20[16.7 µM]	6
Cc1ccc(S(=O)(=O)N(C)C[C@H]2Oc3ncc(C#CC4(O)CCCC4)cc3C(=O)N([C@@H](C)CO)C[C@H]2C)cc1	-22[16.7 µM]	40
CCCNC(=O)N1C[C@H](O)COC[C@H]2O[C@@H](CC(=O)O)CC[C@@H]21	-15[16.7 µM]	-15
CCC(=O)N(C)C[C@H]1Oc2cc(-c3cncnc3)ccc2S(=O)(=O)N([C@H](C)CO)C[C@H]1C	2[16.7 µM]	5
COCc1cn(CC[C@H]2CC[C@@H](NC(=O)c3ccc(F)cc3)[C@@H](CO)O2)nn1	-4[16.7 µM]	-6

These rows are one share of the data (hit frequency here may not be typical).
